# FUS suppressor: FUS proteinopathy suppression in yeast. Potency, µM (doses to about 76.6 µM), for the others: at the top dose growth rescue (activation), most hits filed as activators. actives 0.24% (n = 390,000). S. cerevisiae FUS-expressing, growth rescue, OD600, 24 h;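 also: potency is read from the fitted curve at half-maximal effect; plate controls were DMSO vehicle for no effect and reference control for full effect; nearly all actives have a fitted effect of over 55% in size; some results filed as inactive show a strong effect at the top dose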
#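 Cultures pregrown in 2.5% raffinose medium are shifted to minimal medium containing 2% galactose to express toxic FUS. Compounds are tested at several concentrations. After 24hr at 30C, growth is quantified at 600 nm absorbance.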
# DRD3 antagonist: antagonists of human D3 dopamine receptor. P35462. D3R cells, DiscoveRx beta-arrestin luminescence, antagonist mode; active compounds read low. max response, negative = inhibition, %. actives 2.5% (n = 360,000). AID 652054; in the data active = max response below about -50%; inconclusive = no clear call, values can overlap the other calls; also: % is scaled to controls: 0 for no effect and ±100 for the full control effect; mostly tested at two doses, the higher about 12 µM
# Target sequence (P35462 whole entry, looked up): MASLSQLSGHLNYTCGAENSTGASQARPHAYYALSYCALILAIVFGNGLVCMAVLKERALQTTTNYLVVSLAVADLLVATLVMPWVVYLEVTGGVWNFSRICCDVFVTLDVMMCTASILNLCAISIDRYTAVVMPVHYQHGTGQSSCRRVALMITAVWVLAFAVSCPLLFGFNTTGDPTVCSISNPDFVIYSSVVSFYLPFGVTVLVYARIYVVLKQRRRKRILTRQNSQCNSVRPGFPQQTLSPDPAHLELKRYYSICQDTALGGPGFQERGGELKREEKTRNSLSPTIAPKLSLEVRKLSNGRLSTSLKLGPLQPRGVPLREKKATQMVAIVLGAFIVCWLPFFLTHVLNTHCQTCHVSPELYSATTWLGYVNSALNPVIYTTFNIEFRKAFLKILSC
#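 Cells expressing the human receptor were seeded at 1500 cells/well, incubated overnight at 37 degrees C in 5% CO2, then exposed to library compounds with dopamine controls for 90 minutes at 37 degrees C before luminescent detection.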
# TDP-43 yeast inh: rescues yeast growth from TDP-43 toxicity. TDP-43 expressing yeast growth rescue, BacTiter-Glo, 24 h. Potency, µM (series often up to 46.1 µM), without a hit: top-dose growth rescue (activation), most hits filed as activators. actives 1.8% (n = 410,000). AID 652104; also: potency is read from the fitted curve at half-maximal effect; % of control where 0% means no effect; nearly all actives have a fitted effect of over 50% in size
#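 Luminescence from BacTiter-Glo reports growth of TDP-43-expressing yeast after 24 hr at 30 deg C with compound. Cells were raffinose-pregrown to mid-log, then seeded in galactose medium at OD600=0.02.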
# aSyn yeast inh: rescues yeast growth from alpha-synuclein toxicity; actives 0.14% (n = 370,000); Potency, µM (doses to about 46.1 µM), for inactives: at the highest dose growth rescue (activation), usual class: activators; AID 652106; Yeast expressing alpha-synuclein, growth rescue, BacTiter-Glo, 24 h; also: potency is read from the fitted curve at half-maximal effect; % of control where 0% means no effect; nearly all actives have a fitted effect of over 65% in size
#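 Galactose-induced alpha-syn yeast (OD600=0.02, raffinose-pregrown) + pinned cpd, 24 hr, 30 deg C; growth by BacTiter-Glo luminescence. Growth restoration scores as activation.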
# D3 ag: activates the human D3 dopamine receptor; P35462; D3R DiscoveRx beta-arrestin cells, luminescence, 90 min; max activation, %; actives 0.58% (n = 410,000); AID 652048; in the data active = max activation above about 30%; also: 0% is about no effect; mostly tested at two doses, the higher about 12 µM
#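 Agonist mode: compounds and dopamine controls were applied to plated cells for 90 min at 37 degrees C after an overnight attachment at 1500 cells/well. Luminescent read-out followed 30 - 60 minutes at room temperature with DiscoveRx detection reagent.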
# Abeta rescue: A-beta toxicity reversal in yeast | yeast expressing A-beta42, growth rescue, OD600, 48 h; response scale: 0% DMSO, 100% iron-clioquinol control | AID 1347071 | actives 0.063% (n = 410,000) | Potency, µM (top dose mostly 46.1 µM), for the others: at the top dose growth rescue, hits mostly activators; also: potency is read from the fitted curve at half-maximal effect; nearly all actives have a fitted effect of over 55% in size
#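 Yeast growth medium received pinned compounds, then yeast cells expressing toxic A-beta were added; plates incubated at 30 C for 48 hr. Growth read as absorbance at 600 nm, normalized to DMSO and equimolar FeCl3 plus clioquinol controls.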
# The depositor's hits bear a star; ? = inconclusive; nt = no result given; [ ] = another dose, or the depositor's remark. Unless noted, calls follow the shape of the dose curve; as a rule, active = well fitted curve in the direction sought with a large enough effect; inconclusive = small, poorly fitted or top-dose-only effect, or another doubt; inactive = no such curve, though single readings can be large; an effect the other way counts as inactive or inconclusive. An excerpt, so the mix of outcomes need not match the whole.
SMILES,FUS suppressor,DRD3 antagonist,TDP-43 yeast inh,aSyn yeast inh,D3 ag,Abeta rescue
CCC(NS(=O)(=O)c1c(C)[nH]c(=O)[nH]c1=O)C12CC3CC(CC(C3)C1)C2 (stereo not drawn),38%,5,-13%,0%,-4,2%
CCSc1nc(O)c(C(c2cccc(OC)c2)c2c(O)nc(SCC)[nH]c2=O)c(=O)[nH]1,6%,8,-24%,-9%,5,-20%
O=C1OC(c2ccccc2)(c2cc(Br)c(O)c(Br)c2)c2ccccc21 (stereo not drawn),33%,-8,-83%[inhibitor],-54%[inhibitor],-13,-32%[inhibitor]
O=C(CN1C(=O)c2ccccc2C1=O)NCC1COc2ccccc2O1 (stereo not drawn),3%,0,-11%,9%,0,0%
Cc1cc(-c2csc(NC(=O)c3ccc(=O)[nH]c3)n2)c(C)n1Cc1ccco1,18%,-15,-16%,-8%,4,-2%
Cc1cc(=O)oc(C)c1C(=O)NCC1COc2ccccc2O1 (stereo not drawn),17%,-23,16%,8%,-5,4%
Cn1ccc2c(N3CCOCC3)cc3c(c21)C1CCC3O1 (stereo not drawn),2%,15,20%,15%,10,-5%
COC(=O)c1ccc2nc(-c3cccc(Cl)c3)c(Cc3ccccc3)n2c1,15%,12,?,-12%,2,-13%
Cc1cc(C)c2c(CC(=O)NC3CCS(=O)(=O)C3)coc2c1 (stereo not drawn),8%,-7,5%,-1%,-1,3%
CCOc1ccccc1NC(=O)c1cccc(N2C(=O)CCC2=O)c1,-10%,-3,7%,6%,-11,12%
O=C(CSc1nccc(=O)[nH]1)N1c2ccccc2CCc2ccccc21,12%,-9,-20%,0%,7,14%
O=C(NCCOc1nc(N2CCCCC2)nc(N2CCCCC2)n1)Nc1ccccc1,4%,-3,-8%[0.397 µM],3%,10,-25%
Cc1c(-c2ccccc2)[nH]n2c(=O)c3c(nc12)CCCC3,nt,-2,-12%,0%,-1,9%
CCCCC1=C(C(=O)OCC)C(C(=O)OCC)Oc2ccccc21 (stereo not drawn),-19%,27,20%,6%,4,4%
Cc1nn(-c2ccccc2)c2[nH]c(=O)c(CNCCN3CCOCC3)cc12,-7%,-66*,1%,13%,2,10%
C=C(C)Cn1c(C)cc(C)c(S(=O)(=O)c2ccccc2C)c1=O,9%,17,8%,-10%,3,1%
COc1ccc(CN2CCNC(=O)C2CC(=O)NCCC2=CCCCC2)cc1OC (stereo not drawn),9%,-12,-6%,-5%,-6,-2%
CC(C)OCCCNC(=O)COCC(=O)Nc1ccc(OCCc2ccccc2)cc1,25%,12,9%,6%,8,7%
COc1cccc(Oc2ccc(N/C=C/C(=O)C(C)(C)C)cc2)c1,23%,13,-12%,2%,2,0%
Cc1ccc(S(=O)(=O)N2[C@@H](c3ccc(Br)cc3)C(C(=O)O)=CC[C@H]2c2cccc(C)c2)cc1,-11%,1,25%,-6%,-31,-16%
CC1=C(C(=O)OCc2ccccc2)C(c2cccnc2)n2nnnc2N1 (stereo not drawn),-5%,-1,-4%,0%,0,14%
Cc1ccc(C2(c3noc(CN(C)CCO)n3)CCCC2)cc1,15%,-12,nt,-2%,-18,1%
CCC(=O)N1CCC1(C)C(=O)Nc1ncc(C)s1 (stereo not drawn),-15%,0,0%,0%,-13,8%
CCCCNC(=O)c1nc(C2CCN(S(=O)(=O)c3ccc(Cl)cc3)CC2)oc1-c1ccccc1,-8%,-23,-8%,-2%,0,-8%
CCCN(CC)c1ncnc2[nH]ncc12,-30%,-19,12%,1%,1,-2%
O=C(Nc1nnc(CCN2CCCCC2)s1)c1ccc(Cl)cc1Cl,-3%,20,6%,0%,0,0%
COc1cccc(NC(=O)c2ccc(NS(=O)(=O)c3cccs3)cc2)c1,11%,5,-5%,-3%,-3,6%
Fc1ccc(-c2cc3nc(-c4ccccc4)cc(N4CCN(CCN5CCOCC5)CC4)n3n2)cc1,27%,-29,-20%,-11%,-23,-10%
CCOC(=O)c1ccc(S(=O)(=O)N2CCC(C(=O)NCC3COc4ccccc4O3)CC2)cc1 (stereo not drawn),12%,?,0%,-4%,-1,-5%
Cc1sc(NC(=O)CN2CCCC2)nc1-c1ccc2c(c1)CCN2C(=O)c1ccc(F)cc1,59%,-15,-21%,-3%,-8,-4%
COC(=O)c1ccc(OC(=O)c2nn(C)cc2Cl)c(OC)c1,12%,-21,15%,18%,1,5%
O=C(Nc1ccc(NC(=O)c2ccccc2F)cc1)c1cccs1,-12%,-5,4%,-6%,-3,-26%
Fc1cccc(Cl)c1CSc1ncn[nH]1,11%,-5,11%,-2%,1,9%
COc1cccc(NCc2cc(=O)oc3cc(C)c(C(C)C)cc23)c1,19%,7,15%,2%,0,-9%
CCC(C)Sc1cccc(-c2nc3ccc(Cl)cn3c2NCc2ccccc2)c1 (stereo not drawn),11%,-22,?,-21%,0,-3%
O=C1Nc2cc(C(=O)N3CCOCC3)ccc2S/C1=C\c1ccccc1,4%,-7,25%,-1%,2,-14%
CC(C)[C@@H](C(=O)OCC(=O)c1ccc2c(c1)NC(=O)CO2)N1C(=O)c2ccccc2C1=O,-12%,37,-2%,8%,11,2%
O=C(NC1CCCCNC1=O)c1ccco1 (stereo not drawn),-34%,14,10%,-1%,1,12%
CN(C)CCN(C(=O)CN1C(=O)c2ccccc2C1=O)c1nc2cc3c(cc2s1)OCO3,19%,-25,15%,-3%,-4,1%
c1ccc(Oc2nc(-c3cccnc3)nc3ccccc23)cc1,17%,17,?,18%,4,-5%
CC(C)CCNC(=O)C1(C)CCN1Cc1ccc2ccccc2c1 (stereo not drawn),-8%,6,0%,1%,-4,5%
Cc1c(Cc2c(C)n(C)n(-c3ccccc3)c2=O)c(=O)n(-c2ccccc2)n1C,nt,1,0%,-1%,2,10%
CC(Cc1ccccc1)C(=O)N1CCN(C)CC1 (stereo not drawn),-38%,-10,-2%,-5%,-17,-8%
CCc1nnc(NS(=O)(=O)c2ccc(NC(=O)C(c3ccccc3)c3ccccc3)cc2)s1,32%,-9,-13%,0%,2,17%
OC(c1ccccc1)(c1ccccc1)c1nccn1-c1ccccc1,3%,-11,-18%,-5%,-5,?
COc1ccccc1N1CN(CCc2ccccc2)CNC1=S,7%,-13,-11%[1.82 µM],-6%,3,?
COCC(C)NC(=O)c1noc2c1CCc1cc(OC)ccc1-2 (stereo not drawn),24%,-3,2%,2%,8,3%
Cc1ccc(C2(c3noc(CN(C)CC4COCCO4)n3)CCCC2)cc1 (stereo not drawn),?,8,nt,11%,-7,11%
COc1ccccc1NC(=O)CC(c1ccc(OC(C)C)cc1)c1ccccc1OC (stereo not drawn),nt,43,2%,24%,47*,10%
CN(CCc1ccccc1)C(c1cc2ccccc2o1)c1nnnn1C(C)(C)C (stereo not drawn),19%,24,15%,5%,11,-2%
CCCCNC(=O)C1(C)CCCCCN1Cc1cccc2c(OC)cc(C(=O)OCC)cc12 (stereo not drawn),?,0,-3%,3%,-4,-4%
O=C(CSc1cn[nH]n1)Nc1ccccc1F,18%,6,-11%,-7%,-4,-7%
COc1ccc(N(CN2C(=O)C3CC=CCC3C2=O)C(=O)c2ccco2)cc1 (stereo not drawn),1%,?,-2%,6%,-1,6%
Cc1nc2ccccc2c(C)c1C(=O)c1ccc(F)cc1,-24%,9,20%,-6%,1,-8%
CCN(CC)S(=O)(=O)c1ccc(OC)c(NC(=O)Cc2cccs2)c1,14%,-16,-16%,-1%,-8,-13%
Cc1[nH]c(=O)[nH]c(=O)c1S(=O)(=O)Nc1cccc(C(F)(F)F)c1,-33%,-9,13%,1%,5,6%
Cc1cc(O)ccc1C1(c2ccc(O)cc2C)OC(=O)c2ccccc21,-4%,-5,7%,21%,2,13%
COc1ccc(CC(=O)c2cc(OC)c(OC)cc2CC(=O)O)cc1OC,-1%,5,-9%,-4%,-1,6%
COc1ccc(/C=N/n2c(C)nc3c([nH]c4ccccc43)c2=O)cc1CN1CCCC(C)(C)C1,-9%,5,1%,-6%,1,-3%
CCOC(=O)c1c(CC(C)C)csc1/N=C/C1=C(O)CCCC1=O,8%,44,?,10%,-14,-2%
# Next part
SMILES,FUS suppressor,DRD3 antagonist,TDP-43 yeast inh,aSyn yeast inh,D3 ag,Abeta rescue
C/C(=N\NC(=O)c1ccccc1O)c1c(O)cc(C)oc1=O,27%,?,-42%[inhibitor],8%,-21,-57%[inhibitor]
CCN1N=C(c2ccccc2)CCC1=O,-47%,3,18%,0%,1,4%
COc1ccc(S(=O)(=O)N2CCC(C(=O)N3CCCCCC3)CC2)cc1,-7%,14,32%,-7%,-3,-29%
CC(C(=O)NC(C)(C)C)N(Cc1cccs1)C(=O)CCN1CCc2ccccc21 (stereo not drawn),24%,-16,9%,13%,-7,-16%
COC(=O)c1cn(S(=O)(=O)c2ccccc2)c2ccccc12,24%,-27,12%,-4%,-12,8%
CC1CN(c2nc3ccccc3cc2-c2ccccc2)CC(C)O1 (stereo not drawn),17%,39,-7%,-25%,7,-31%
O=C1OC2(c3ccccc31)c1ccccc1-c1ccccc12,9%,0,?,-22%,-7,-4%
c1ccc2oc(SCc3nc4ccccc4s3)nc2c1,6%,26,?,?,0,9%
CCOc1ccc(C2C3=C(CCCC3=O)Nc3ccc4ncccc4c32)cc1 (stereo not drawn),15%,-27,-3%,4%,-6,-1%
COc1ccc2c(c1)CCc1c(C(=O)Nc3ccc(OC)c(OC)c3)noc1-2,11%,14,-8%,-2%,34*,-6%
CCOC(=O)C1=C(C)N(C)C(C)=C(C(=O)OCC)C1c1ccc(Cl)cc1,29%,-5,-26%,0%,-7,-35%
COc1ccc2c(c1)CCc1c(C(=O)NCc3ccco3)noc1-2,6%,2,1%,5%,2,11%

# Part of the list above in order of formula weight, ascending.
SMILES,FUS suppressor,DRD3 antagonist,TDP-43 yeast inh,aSyn yeast inh,D3 ag,Abeta rescue
C/C(=N\NC(=O)c1ccccc1O)c1c(O)cc(C)oc1=O,27%,?,-42%[inhibitor],8%,-21,-57%[inhibitor]
COC(=O)c1cn(S(=O)(=O)c2ccccc2)c2ccccc12,24%,-27,12%,-4%,-12,8%
CC1CN(c2nc3ccccc3cc2-c2ccccc2)CC(C)O1 (stereo not drawn),17%,39,-7%,-25%,7,-31%
CCOc1ccc(C2C3=C(CCCC3=O)Nc3ccc4ncccc4c32)cc1 (stereo not drawn),15%,-27,-3%,4%,-6,-1%
COc1ccc2c(c1)CCc1c(C(=O)Nc3ccc(OC)c(OC)c3)noc1-2,11%,14,-8%,-2%,34*,-6%

# Next part.
SMILES,FUS suppressor,DRD3 antagonist,TDP-43 yeast inh,aSyn yeast inh,D3 ag,Abeta rescue
Cc1ccc(C2(c3noc(CN(C)CC4CCCCO4)n3)CCCC2)cc1 (stereo not drawn),11%,22,4%,6%,4,?
CCOC(=O)C1CCN(C(=O)NC23CC4CC(CC(C4)C2)C3)CC1,0%,-5,-7%,10%,13,5%
Cn1c(SCC(=O)NCC2COc3ccccc3O2)nnc1C(F)(F)F (stereo not drawn),nt,14,16%,-8%,-6,11%
CC1(C)Cc2ccccc2C(C(=O)c2ccccc2)=N1,-28%,0,10%,6%,-3,29%
COC(=O)c1ccc2nc(-c3ccc(Cl)cc3)c(Cc3cccc(F)c3)n2c1,4%,89,?,-1%,5,10%
O=C(O)c1cc(-c2ccccc2Cl)n[nH]1,2%,14,4%,2%,3,3%

# High-throughput results from PubChem.
